Arbovirus inh – blocks arbovirus infection. arbovirus infection cell-based antiviral screen. inhibition, % at 10 µM. actives 0.37% (n = 200,000). AID 1251;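 active = inhibition from about 30%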;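 note: bluetongue infection of BSR cells; cell survival read as ATP light after 72 h; 0% = infected wells without compound and 100% = uninfected wells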
Mtb betalactam – beta-lactam sensitization of Mtb H37Rv; actives 0.27% (n = 330,000); M. tuberculosis H37Rv growth with meropenem, percent inhibition; hits of this screen are not shown here; AID 434955; inhibition, % at 25 µM;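 active = about 74% or more and at least 40 points above the plate without the antibiotic, then above 30% in a dose series; inconclusive = first-round hits that could not be retested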;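 note: growth measured after seven days incubation then overnight dye step; 0% = bacteria only wells and 100% = bacteria with antibiotic; twin plates without the antibiotic show which effects depend on it; some results filed as inactive read as strong as hits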
Mtb H37Rv – M. tuberculosis H37Rv growth inhibitors, H37Rv strain (AID 1626); M. tuberculosis H37Rv growth inhibition; higher % means a stronger effect; one-dose inhibition, % at 10 µM; IC50 in µM for titrated hits; actives 0.95% (n = 220,000);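 active = confirmed in a dose series; inconclusive = inhibition above 80% but not taken into the dose series; inactive = below 80% or under 30% at every dose of the series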;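 note: bacteria incubated seven days before Alamar blue readout; 0% = bacteria only wells and 100% = bacteria with antibiotic wells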
RecA intein inh – inhibitors of M. tuberculosis RecA intein splicing | P9WHJ3 | cell-free RecA intein splicing, fluorescence | inhibition, %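 (about 9 µM by stock and volumes)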 | actives 0.75% (n = 290,000); in the data active = inhibition above about 30%; inconclusive = no clear call, values can overlap the other calls;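 note: 0% = vehicle wells and 100% = reference inhibitor control wells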
Target sequence (P9WHJ3 whole entry, looked up): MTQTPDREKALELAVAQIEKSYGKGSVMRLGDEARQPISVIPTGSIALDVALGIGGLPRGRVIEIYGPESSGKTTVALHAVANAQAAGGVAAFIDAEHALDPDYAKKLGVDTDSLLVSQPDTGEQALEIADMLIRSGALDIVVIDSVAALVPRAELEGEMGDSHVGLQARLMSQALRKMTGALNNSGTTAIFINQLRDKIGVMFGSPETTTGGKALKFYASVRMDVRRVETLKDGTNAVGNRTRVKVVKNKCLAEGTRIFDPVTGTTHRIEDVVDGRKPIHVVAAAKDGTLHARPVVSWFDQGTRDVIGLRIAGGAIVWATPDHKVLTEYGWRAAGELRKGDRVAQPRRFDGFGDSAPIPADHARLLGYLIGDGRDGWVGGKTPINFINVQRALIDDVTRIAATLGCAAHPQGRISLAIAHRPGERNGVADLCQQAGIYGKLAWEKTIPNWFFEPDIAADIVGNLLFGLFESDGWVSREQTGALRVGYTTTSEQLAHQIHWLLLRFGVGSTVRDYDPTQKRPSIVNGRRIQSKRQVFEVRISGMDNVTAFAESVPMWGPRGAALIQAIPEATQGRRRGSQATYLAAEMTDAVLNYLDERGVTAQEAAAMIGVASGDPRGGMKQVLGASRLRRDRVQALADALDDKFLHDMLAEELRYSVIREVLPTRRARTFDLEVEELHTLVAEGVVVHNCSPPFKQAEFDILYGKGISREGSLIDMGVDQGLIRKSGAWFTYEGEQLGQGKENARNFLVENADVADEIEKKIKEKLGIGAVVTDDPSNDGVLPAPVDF
YopH PTP inh – blocks Yersinia enterocolitica YopH tyrosine phosphatase | fluorescence Ex485/Em525 | actives 0.16% (n = 140,000) | inhibition, %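 (about 10 µM by stock and volumes)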 | AID 898;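 active = inhibition of 50% or more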;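 note: controls were vehicle for no effect and minimum signal wells for full effect; inactives centre near -20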
Arbovirus inh repeat – further read-out of Arbovirus inh, marked with its call; inhibition, %; measured here: 10K subset replicate screen; many hits read low in the repeat;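 first of two repeat runs on a subset; 0% = infected and 100% = uninfected wells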
* hit, by the source's call; ? = inconclusive; · = no result given.

SMILES	Arbovirus inh	Mtb betalactam	Mtb H37Rv	RecA intein inh	YopH PTP inh	others
Cc1ccc(CNC(=O)C2CCCN(S(=O)(=O)c3c(C)noc3/C=C/N(C)C)C2)cc1 (configuration not stated)	·	-4	-9%	0.4	·
Cc1onc(-c2ccccc2Cl)c1C(=O)N1CCN(Cc2ccc3c(c2)OCO3)CC1	-10	-9	3%	-1.4	·
O=C(Nc1cccnc1)c1cnn2c(C(F)F)cc(C3CC3)nc12	3	-7	-8%	-0.3	-15
S=C(NCc1ccco1)NCC1CCCO1 (configuration not stated)	2	-3	0%	-1.1	·
COc1ccc(CC(=O)n2nc(-c3cccnc3)nc2N)cc1	6	8	4%	3.7	-8
COc1cc(NC(=O)C2=C(N3CCOCC3)/C(=C\c3ccc(N(C)C)cc3)CCC2)cc(OC)c1OC	-16	99	73%	-0.8	-41
CCC1=CCN(CCc2c(C)[nH]c3ccccc23)CC1	·	-6	-1%	-0.1	·
CCOc1ccccc1CNCCNC(=O)c1nonc1N	·	-4	4%	1.7	·
Cc1ccsc1/C=N/Nc1cccc(C(=O)O)c1	1	6	5%	-2.8	·
O=C(O)Cc1c[nH]c2ccccc12	·	-1	6%	-4.2	·
Cc1ccccc1NC(=O)c1cc(=O)c2ccccc2o1	4	0	1%	5.1	-44
COCCn1c(=O)c2cc3c(=O)n(CCOC)c(=O)c3cc2c1=O	3	-13	-1%	-0.1	-13
CCOC(=O)c1cnc2cc(C)nn2c1C	3	0	-5%	1.2	-1
CCCC(=O)c1ccc(N2CCCC2)c(F)c1	-3	-4	3%	-2.4	-30
O=C(CCN1C(=O)/C(=C/c2ccco2)SC1=S)Nc1ccc(C(=O)O)c(O)c1	·	27	·	27	·
CN(C)S(=O)(=O)Oc1ccc(C(=O)Nc2ccc([N+](=O)[O-])cc2)cc1	3	7	4%	-0.4	·
COCCNC(=O)CN(C(=O)c1ccc(N2CCCC2)nc1)c1ccccc1	12	-3	5%	-1.2	·
O=C(c1ccc(-n2c(SCc3cc(F)ccc3F)nc3ccccc3c2=O)cc1)N1CCOCC1	6	?	5%	0.7	3
CCOc1ccccc1C1CC(=O)Nc2cc3c(cc21)OCO3 (configuration not stated)	-1	-3	-5%	-1.4	-51
Cc1onc(-c2c(Cl)cccc2Cl)c1NC(=O)NNc1ccccn1	·	-2	-9%	·	·
CCN1CCN(P2(=O)C=C(c3ccccc3)OC(c3ccccc3)=C2)CC1	3	3	1%	3.9	9
COc1ccc(/C=C(/NC(=O)c2ccco2)C(=O)N2CCOCC2)cc1	·	1	·	3.1	·
CCC1CCCCN1S(=O)(=O)c1ccccc1 (configuration not stated)	·	5	·	0.9	·
O=C(COC(=O)Cc1ccccc1)NC12CC3CC(CC(C3)C1)C2	2	61	13%	1.6	-9
Cc1nc(NC(=O)CN2CC(C)OC(C)C2)sc1C(=O)N(C)C (configuration not stated)	·	3	·	0.6	·

Structural class: the compounds so far with an NH in an aromatic ring.
SMILES	Arbovirus inh	Mtb betalactam	Mtb H37Rv	RecA intein inh	YopH PTP inh	others
CCC1=CCN(CCc2c(C)[nH]c3ccccc23)CC1	·	-6	-1%	-0.1	·
O=C(O)Cc1c[nH]c2ccccc12	·	-1	6%	-4.2	·

Continued.
SMILES	Arbovirus inh	Mtb betalactam	Mtb H37Rv	RecA intein inh	YopH PTP inh	others
O=C1NC(=O)C(CC(=O)N(Cc2ccco2)C2(C(=O)NC3CCCCC3)CCCCC2)N1 (configuration not stated)	16	-9	-3%	·	-34	Arbovirus inh repeat=13
NC(=O)CC(NC(=O)c1ccc(Br)cc1)c1ccc(NCCc2ccc(F)cc2)c([N+](=O)[O-])c1 (configuration not stated)	·	7	-4%	2.5	·
COc1ccc(C(=O)CC(=O)c2ccc(C)cc2)c(O)c1	·	65	·	3.0	·
Cc1cc2ncn(C(=O)c3c(-c4ccccc4Cl)noc3C)c2cc1C	6	-6	14%	2.2	-15
Cc1nn(CCC#N)c(NC(=O)c2ccc(Cl)cc2)c1P(=O)(Nc1ccc([N+](=O)[O-])cc1)N1CCOCC1 (configuration not stated)	2	-5	-26%	1.0	14
CN(C)C(=O)c1ccc2c(c1)C1C3CCC(C3)C1C(c1ccccc1)N2 (configuration not stated)	2	0	8%	7.4	-22
O=C(CN(c1cccc(C(F)(F)F)c1)S(=O)(=O)c1ccc(Cl)c([N+](=O)[O-])c1)NCc1ccc(F)cc1	-18	2	-6%	-0.8	-21
CC(NC(=O)C[n+]1cccc(Br)c1)c1ccccc1 (configuration not stated)	·	1	·	0.9	·
COCCn1nnnc1C(C(C)C)N1CCN(C(=O)c2ccco2)CC1 (configuration not stated)	1	-6	-5%	-0.6	3
O=C(O)CC1=C(Nc2ccccc2)C(=O)N(c2ccccc2)C1c1ccc(Cl)cc1 (configuration not stated)	·	0	-7%	2.7	·
COC(=O)C1C(=O)C(C(=O)c2ccccc2)C(=O)CC1(C)C (configuration not stated)	·	0	·	-3.0	·
COc1ccc2cnn(CCOc3ccccc3)c(=O)c2c1OC	-7	-7	-6%	0.1	-15
COc1ccc(CC(=O)Nc2ccc(-c3noc(-c4cc(OC)c(OC)c(OC)c4)n3)cc2)cc1	-3	-4	-5%	·	12
Cc1cc(C(=O)N2CCCC(N3CCN(c4cccc(Cl)c4)CC3)C2)nn1C (configuration not stated)	·	-3	·	3.8	·
Cn1c(=O)n(CCC(=O)O)c2ccccc21	2	-10	·	-1.2	-38
O=Cc1ccc(-n2nncc2-c2ccc([N+](=O)[O-])cc2)cc1	-3	0	3%	0.7	·
Cc1ccc(NC(=O)/C=C/c2ccc(Cl)cc2)nc1	-2	-3	-4%	-0.6	·
COc1ccc(-c2c(C)nn3c(NC4CCCC4)cc(C)nc23)cc1OC	·	87	·	0.0	·
O=C(NNC(=O)C1CC1)c1ccc(-c2ccccc2)cc1	1	0	-1%	2.2	3
CCc1ccc(C2=NN(CCC(=O)NC(C)c3ccc4c(c3)OCCO4)C(=O)CC2)cc1 (configuration not stated)	3	-9	-2%	-3.7	·
CCOc1ccc(NC(=O)CN(C)C(=O)c2ccccc2CCc2ccccc2)cc1OCC	·	-8	·	1.0	·
O=C1C(NS(=O)(=O)c2cccs2)=C(N2CCOCC2)C(=O)c2ccccc21	·	-4	-10%	11	·
O=C(COC(=O)/C=C/c1cccc(Cl)c1)NCCC1=CCCCC1	-5	-4	0%	0.2	-28
Cc1ccnc2nc(C(=O)OCCOc3ccccc3)nn12	-4	-8	0%	0.6	-38
N#CC1=C(N)NC(SCC(=O)Nc2ccccc2)=C(C#N)C12CCCC2	-9	-10	5%	1.9	-10

A draw from above in order of heavy-atom count, ascending:
SMILES	Arbovirus inh	Mtb betalactam	Mtb H37Rv	RecA intein inh	YopH PTP inh	others
COc1ccc(C(=O)CC(=O)c2ccc(C)cc2)c(O)c1	·	65	·	3.0	·
O=C(O)CC1=C(Nc2ccccc2)C(=O)N(c2ccccc2)C1c1ccc(Cl)cc1 (configuration not stated)	·	0	-7%	2.7	·
COc1ccc(CC(=O)Nc2ccc(-c3noc(-c4cc(OC)c(OC)c(OC)c4)n3)cc2)cc1	-3	-4	-5%	·	12

The main list resumes with the three entries that preceded the break.
SMILES	Arbovirus inh	Mtb betalactam	Mtb H37Rv	RecA intein inh	YopH PTP inh	others
O=C(COC(=O)/C=C/c1cccc(Cl)c1)NCCC1=CCCCC1	-5	-4	0%	0.2	-28
Cc1ccnc2nc(C(=O)OCCOc3ccccc3)nn12	-4	-8	0%	0.6	-38
N#CC1=C(N)NC(SCC(=O)Nc2ccccc2)=C(C#N)C12CCCC2	-9	-10	5%	1.9	-10
Cc1ccc2nc(NCc3ccccc3)[nH]c2c1	-14	78	-8%	·	-6
CCOc1ccccc1NC(=O)CCCNC(=O)c1ccc(Cl)cc1	·	0	·	0.0	·
CCc1ccccc1NC(=O)COc1ccc2c(=O)c(Oc3cc(C)ccc3C)coc2c1	-2	-6	2%	0.0	-10
O=C(Nc1cccc2c1N(C(=O)c1ccco1)CCC2)c1ccco1	·	-11	·	-0.2	·
CCNC(=O)NC(=O)C(C)OC(=O)C1CCN(S(=O)(=O)c2ccccc2C(=O)OC)CC1 (configuration not stated)	1	0	·	-2.2	·
O=C(Nc1cc(Cl)cc(Cl)c1)c1cccc(OC(F)F)c1	-40	98	50%	15	-15
Cc1cccc(C(=O)N2c3ccccc3C(=O)OC2c2ccc3c(c2)OCO3)c1 (configuration not stated)	13	-2	·	0.9	-20
O=C(CN(Cc1ccccc1Cl)C(=O)c1ccc(CN2CCOCC2)o1)NCc1ccccc1	4	-9	-5%	2.7	-42
COc1ccccc1CNS(=O)(=O)c1ccc2c(c1)NC(=O)C(C)S2 (configuration not stated)	·	7	·	-0.8	·
CC(C1CC1)N(C(=O)c1ccccc1[N+](=O)[O-])c1ccccc1 (configuration not stated)	-2	-3	3%	3.3	·
Cc1ccccc1CN1CCc2c(OCC(=O)N3CCCCC3)cccc2C1=O	-17	-1	5%	1.0	·
NC(=O)C1(N2CCCCC2)CCN(C(=O)CCCn2c(=O)[nH]c3ccsc3c2=O)CC1	1	-2	2%	·	-7	Arbovirus inh repeat=4
O=S(=O)(Nc1ccc(-c2nc3cccnc3s2)cc1)c1ccc(Cl)s1	1	0	7%	-18	-42
CC(=O)c1cccc(NC(=S)NC(=O)c2ccccc2C)c1	2	-1	1%	0.5	·
C=CCN(c1ccccc1C(=O)NCC(=O)O)S(=O)(=O)c1ccccc1C	·	-4	-6%	-0.2	·
CCc1[nH]nc(C(=O)N2CCCC(C(=O)c3cccc(C(F)(F)F)c3)C2)c1C (configuration not stated)	·	0	·	-6.9	·
COc1ccc2c(C(=O)CN(C)C3CCCCC3)c[nH]c2c1	2	7	-3%	-3.3	26
COc1cc(/C=C(\C#N)c2nc3ccccc3[nH]2)cc(Br)c1OCc1ccc(F)cc1	-17	5	2%	-245	-7
Cc1nc(CC(=O)c2ccc(O)cc2O)cs1	2	-22	-2%	-0.1	-3
O=C(COc1ccc2c(c1)oc(=O)c1ccccc12)NCC1CCC(C(=O)O)CC1 (configuration not stated)	·	1	·	-0.1	·
O=C(CSc1nncn1-c1ccccc1)Nc1ccccc1	·	0	·	-0.3	·
CC(=O)/C(C(=N)N1CCN(Cc2ccccc2)CC1)=C(\C)O	-1	-16	-1%	-1.6	-41	Arbovirus inh repeat=2
O=C(O)c1nn(-c2cccc(C(F)(F)F)c2)ccc1=O	·	-7	·	-4.4	·
CSCCC(NS(=O)(=O)c1ccccc1F)C(=O)NNC(=O)c1csc(N2CCOCC2)n1 (configuration not stated)	·	-5	·	-2.6	·
CC1CCN(C(=O)Cn2cc3c(n2)CCCC3)CC1	7	?	1%	2.3	-23	Arbovirus inh repeat=-3
SMILES	Arbovirus inh	Mtb betalactam	Mtb H37Rv	RecA intein inh	YopH PTP inh	others
CCN(CCCNC(=O)CN1C(=O)COc2ccccc21)c1cccc(C)c1	6	6	5%	-3.0	7
CCOC(=O)c1c(C)sc2c1N(C(=O)CN(CC)CC)c1cc(Cl)ccc1S2	-30	-5	9%	11	-37
Cc1ccccc1C(=O)Nc1ccc2c(c1)CCCN2C(=O)c1cccs1	·	23	·	-2.2	·
CCn1c(SCC(=O)N2CCCC2)nnc1-c1ccc(N)cc1	3	-9	5%	-1.7	-11
CC(C)OCC(O)Cn1c(N2CCCC2)nc2c1c(=O)n(C)c(=O)n2C (configuration not stated)	·	-3	·	0.4	·
CC(C)O/C(=N\S(=O)(=O)c1ccc(Cl)cc1)c1ccccc1	4	1	3%	4.0	-10
COc1cc(C2c3c(n[nH]c3C)C(=O)N2c2ccc(Br)cc2)ccc1O (configuration not stated)	10	-5	-15%	21	5
CCOC(=O)C(c1ccccc1)C(Nc1ccccc1)c1ccccn1 (configuration not stated)	·	-7	6%	-2.2	·
Cc1ccccc1CNS(=O)(=O)c1c(C)[nH]c(C)c1C(=O)N1CCCCC1	·	-6	·	-1.0	·
Cc1ccc(N(C(=O)CCC(=O)Nc2cc(C)on2)C(C(=O)NC2CCCC2)c2ccccc2)cc1 (configuration not stated)	-1	-5	-6%	0.5	·
Cc1cc(C)n(-c2ccc(NC(=O)C3CCN(Cc4cc(C)c(C)o4)CC3)cc2)n1	·	-10	·	-1.7	·
CCC(=O)Nc1ccc(Nc2nc(C)c([N+](=O)[O-])c(Nc3ccc(NC(=O)CC)cc3)n2)cc1	-13	3	13%	2.2	-12
Cc1cc(C)cc(OCC(=O)NNC(=O)CCN2C(=O)c3ccccc3C2=O)c1	-4	2	-2%	-1.9	-2
O=C(O)c1ccc2c(c1Nc1ccccc1)C(=O)c1ccccc1C2=O	·	5	-4%	11	·
O=C(C1CCC(=O)N(C2CCCC2)C1)N1CCN(c2ccc(Cl)cc2)CC1 (configuration not stated)	·	2	·	1.6	·

Screening data (PubChem BioAssay)

This is a subset (hit frequency here may not be typical).
